High-throughput results as filed in PubChem.
OX1R FRET antag: blocks the human orexin 1 receptor; inhibition, % at 6.6 µM; AID 485270; OX1R-expressing cells, FRET antagonist read-out; O43613; 1.8% of 330,000 active; in the data active means inhibition mostly above about 38%, no sharp cut-off; inactive means mostly below about 40%;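 further: 0% = agonist challenge alone and 100% = reference antagonist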
Target sequence (O43613 whole entry, looked up): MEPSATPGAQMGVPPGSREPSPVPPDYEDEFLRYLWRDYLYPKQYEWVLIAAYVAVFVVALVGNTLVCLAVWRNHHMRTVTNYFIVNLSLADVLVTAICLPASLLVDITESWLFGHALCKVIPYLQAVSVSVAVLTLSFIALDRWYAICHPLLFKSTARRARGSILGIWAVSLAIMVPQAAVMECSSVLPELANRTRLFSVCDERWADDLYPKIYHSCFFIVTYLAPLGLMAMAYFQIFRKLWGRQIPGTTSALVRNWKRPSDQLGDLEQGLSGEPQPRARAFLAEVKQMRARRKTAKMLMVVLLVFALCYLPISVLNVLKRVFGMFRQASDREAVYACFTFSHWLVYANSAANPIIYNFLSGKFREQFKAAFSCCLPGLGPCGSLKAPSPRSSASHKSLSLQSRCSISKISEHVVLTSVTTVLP
An asterisk follows results filed as active; & = joins results of further samples. Only part of the results is shown; most or all hits stand in other tables.

SMILES	OX1R FRET antag
COC(=O)c1ccc(Cl)c(NC(=O)c2cccc([N+](=O)[O-])c2C)c1	8
CC1=CC(C2CC(=O)N(c3ccc(C)cc3)C2=O)CC2C(=O)N(c3ccc(C)cc3)C(=O)C12 (configuration not stated)	25
Cc1ccc(-n2nnnc2SCC(=O)Nc2ccc3c(c2)COC3=O)cc1C	14
Cc1nc(SCC(=O)Nc2ccc(F)cc2)c(C#N)c(C)c1CC(=O)c1ccc(Br)cc1	14
CCCCOC1(c2ccccc2)NC(=S)NN=C1c1ccccc1 (configuration not stated)	5
COc1ccc(N2CCN(C(=O)C(=O)c3c[nH]c4ccccc34)CC2)cc1	12
O=C(c1ccc(Cl)cc1)c1c[nH]cc1-c1ccccc1	12
CCCCNCC(=O)Nc1ccc(NC(=O)CNCCCC)cc1	-1
CCOC(=O)c1ccc(CSc2nnc(N)s2)cc1	31
CSCCC(NS(=O)(=O)c1ccccc1)C(=O)OCc1nc2ccsc2c(=O)[nH]1 (configuration not stated)	11
Cc1cc2oc3c(c(=O)c2cc1C)C(c1cccc(Br)c1)N(Cc1ccco1)C3=O (configuration not stated)	24
O=C(CCc1nnc2ccc(NCc3ccccc3)nn12)NC1CCCC1	9
CCOC(=O)CSc1nc(N)nc(C)c1Br	-4
CC(C)Cn1c2c(c(O)c(C(=O)Nc3nccs3)c1=O)CCCC2	14
Cc1ccccc1NC(=O)CSc1nnc(-c2ccco2)c(-c2ccco2)n1	21
CCc1cccc(C)c1NS(=O)(=O)c1cccs1	10
CC1=C(C(=O)OCC2CCCO2)C(c2ccccc2OC(C)C)C2=C(CC(c3ccco3)CC2=O)N1 (configuration not stated)	35
O=C(N1CCNCC1)N1CCOCC1	-8
O=C1NCCN/C1=C\C(=O)c1ccccc1	14
CCOC(=O)c1c(C)n(C)c2cc(Br)c(C)cc12	2
Cc1cc2oc3c(c(=O)c2cc1C)C(c1ccc(C(C)C)cc1)N(CCCN1CCOCC1)C3=O (configuration not stated)	20
O=C(COC(=O)c1ccco1)NCCNC(=O)COC(=O)c1ccco1	12
O=C(COC(=O)c1c(Cl)cccc1Cl)Nc1ccccc1Br	22
O=C(O)c1cccc(S(=O)(=O)Nc2ccccc2Cc2ccccc2)c1	10
O=C(Nn1c(C2CCC2)nc2ccccc2c1=O)c1cccs1	8
O=C(Oc1cccc2cccnc12)c1ccc(N2C(=O)C3C4CCC(C4)C3C2=O)cc1 (configuration not stated)	14
COc1ccc(NC(=S)Nc2ncccc2C)c(OC)c1	10
CCCn1nc2cc(C(=O)NCCCCc3ccccc3)ccc2c1OCC	14
c1ccc(N2CCN(C3CC4CCC3C4)CC2)cc1 (configuration not stated)	13
[O-][N+]12CC[N+]([O-])(CC1)c1ccccc12	3
CC(C)(C)C(=O)Nc1ccnn1C1CCN(C(=O)c2ccc(Cl)cc2F)CC1	13
CC(C)c1ccc(OCc2cccc(C(=O)N/N=C/c3cccnc3)c2)cc1	21
O=S(=O)(Cc1ccccc1)N1CCCc2ccccc21	13
CCOc1ccc(C2C(C#N)=C(N)Oc3cc(C)n(Cc4ccco4)c(=O)c32)cc1OC (configuration not stated)	10
O=C(Nc1nccs1)c1ccc2c(=O)n3c(nc2c1)CCCCC3	22
Cc1ccc(Cn2cc(S(=O)(=O)c3ccc(C(C)C)cc3)c(=O)c3cc4c(cc32)OCO4)cc1	16
CN1CCN(C(=O)/C(=C\c2ccccc2)c2ccccc2)CC1	9
O=C(CN(Cc1ccccc1)S(=O)(=O)c1ccc(Br)cc1)NCC1CCCO1 (configuration not stated)	13
COc1cc(C(C)=O)ccc1OCC(O)CN(CCO)Cc1ccccc1 (configuration not stated)	13
CCn1c(-c2nn(C)c(C)c2Cl)n[nH]c1=S	10
O=C(CSc1ncnc2c1oc1ccccc12)NCc1ccco1	-8
Cc1cc(-c2ccc(F)cc2)nc2cc(C(N)=O)nn12	37
CCOC(=O)c1c(NC(=O)CC2Nc3ccccc3NC2=O)sc(C)c1C (configuration not stated)	31
COc1ccc(N2CCN(c3ccc(NC(=O)C4CCCCC4)cc3C#N)CC2)cc1	15
CC1=NN(C(=O)c2csc(C)c2C)C(O)(C(F)(F)F)C1 (configuration not stated)	20
c1ccc(-c2cnnc(SCc3cn4cccnc4n3)n2)cc1	29
COc1cc(CNCCCCO)ccc1OCc1ccccc1F	13
CCOc1ccccc1NC(=O)c1nc[nH]c1C(=O)Nc1ccccc1OCC	24
COc1ccc(C(=O)NCc2ccccc2)cc1S(=O)(=O)N1CCCc2ccccc21	24
COC(=O)c1ccc(NC(=O)COC(=O)C2CCC2)cc1	9
COC(=O)C(C)Oc1cc(OC(C)C(=O)OC)c2c(C)c(Cl)c(=O)oc2c1 (configuration not stated)	15
COc1ccc([N+](=O)[O-])cc1NC(=O)C(C)OC(=O)CN1C(=O)C2CC=CCC2C1=O (configuration not stated)	18
CCOc1ccc(Nc2nc(N(C)c3ccccc3)nc(N)c2[N+](=O)[O-])cc1	7
Cc1ccc(C(=O)N/C(=C\c2cccs2)C(=O)NCCCn2ccnc2)cc1	11
COc1cccc2c1OCC(CN1CCN(Cc3ccccc3F)C(CCO)C1)=C2 (configuration not stated)	4
COC(=O)Cn1cnc2scc(-c3ccc(C)c(C)c3)c2c1=O	17
O=C(CS(=O)(=O)c1ccccc1)Nc1ccccn1	0
O=C(c1ccc(Cl)nc1)c1cccs1	1
Clc1ccc2nc(N3CCCCC3)[nH]c2c1	23
COc1ccc(CCN(C)C(=O)C2CCCN(Cc3ccc(OC)c(OC)c3)C2)cc1OC (configuration not stated)	29&-3

Carrying on.
SMILES	OX1R FRET antag
CCN=C1SC(CC(N)=O)C(=O)N1CC (configuration not stated)	13
CC(C)(C)c1nc(SCC(=O)NC2CCCC2)c2ccccc2n1	13
COc1ccc(NC(=O)O/N=C/c2ccncc2)cc1	8
O=C(C1CCN(S(=O)(=O)c2cnc[nH]2)CC1)N1CCc2ccccc2C1	9
Cc1ccc(Nc2nnc(SCc3cc(=O)n4cc(C)ccc4n3)s2)cc1	14
CCn1cc[n+](C)c1P(c1ccccc1)c1ccccc1	7
CNNC(=S)Nc1ccc(Cl)cc1	5
CN(C)CCSc1nc(-c2ccccc2)nc2c1COC(C)(C)C2	1
Fc1cccc(-n2ncc(-c3nnnn3-c3ccccc3)c2C(F)(F)F)c1	13
COc1ccc(NC(=O)C2(N(C(=O)Cn3nnnc3N)c3ccc(OC)cc3)CCCCC2)cc1	12
C/C(N)=C(\C#N)C(=O)NCc1ccccn1	12
Clc1ccc(SCc2cn3ccsc3n2)cc1	45

Another view of some results above:
compound,OX1R FRET antag
CCOc1ccc(Nc2nc(N(C)c3ccccc3)nc(N)c2[N+](=O)[O-])cc1,7
Cc1ccc(C(=O)N/C(=C\c2cccs2)C(=O)NCCCn2ccnc2)cc1,11
COc1cccc2c1OCC(CN1CCN(Cc3ccccc3F)C(CCO)C1)=C2 (configuration not stated),4
COC(=O)Cn1cnc2scc(-c3ccc(C)c(C)c3)c2c1=O,17
O=C(CS(=O)(=O)c1ccccc1)Nc1ccccn1,0
O=C(c1ccc(Cl)nc1)c1cccs1,1
Clc1ccc2nc(N3CCCCC3)[nH]c2c1,23
COc1ccc(CCN(C)C(=O)C2CCCN(Cc3ccc(OC)c(OC)c3)C2)cc1OC (configuration not stated),29&-3
CCN=C1SC(CC(N)=O)C(=O)N1CC (configuration not stated),13
CC(C)(C)c1nc(SCC(=O)NC2CCCC2)c2ccccc2n1,13
COc1ccc(NC(=O)O/N=C/c2ccncc2)cc1,8
O=C(C1CCN(S(=O)(=O)c2cnc[nH]2)CC1)N1CCc2ccccc2C1,9
Cc1ccc(Nc2nnc(SCc3cc(=O)n4cc(C)ccc4n3)s2)cc1,14
CCn1cc[n+](C)c1P(c1ccccc1)c1ccccc1,7
CNNC(=S)Nc1ccc(Cl)cc1,5
CN(C)CCSc1nc(-c2ccccc2)nc2c1COC(C)(C)C2,1
Fc1cccc(-n2ncc(-c3nnnn3-c3ccccc3)c2C(F)(F)F)c1,13
COc1ccc(NC(=O)C2(N(C(=O)Cn3nnnc3N)c3ccc(OC)cc3)CCCCC2)cc1,12
C/C(N)=C(\C#N)C(=O)NCc1ccccn1,12

More entries.
SMILES	OX1R FRET antag
O=C(NCCc1ccccc1)C1CCCN1C(=O)Nc1ccccc1 (configuration not stated)	7
Cc1nnc(SCC(=O)Nc2nc3ccccc3s2)n(N)c1=O	22
CC(C)(C)NC(=O)NC(=O)CN1CCCc2ccccc21	0
Cc1cc(NC(=O)CSc2ccc3nnc(-c4cccs4)n3n2)no1	22
O=CN1CCN(C(=O)c2ccc(-c3nc4ccccc4s3)s2)CC1	23
Cc1ccc(N(CC(=O)N2CCCC2)S(C)(=O)=O)cc1C	-1
O=C(CSc1nnc(CNC(=O)c2ccc(F)cc2)o1)NCc1ccccc1Cl	-2
CCOCCn1c(SCCc2ccccc2)nc2c1c(=O)[nH]c(=O)n2C	1
O=C(N/N=C/C1CC=CCC1)c1cc2ccccc2cc1O (configuration not stated)	8
COc1ccc(S(=O)(=O)N2CCN(C(=O)c3cc(-c4ccc(C)cc4)n[nH]3)CC2)cc1	14
CC(C)N=C(NS(=O)(=O)c1cccs1)c1ccccc1	26
CC(C)Cn1c(SCc2nnc(-c3cccs3)o2)nc(O)cc1=O	14
CCOC(=O)C1(CC2CCCCO2)CCN(S(=O)(=O)c2ccc(OC)cc2)CC1 (configuration not stated)	12
CC(C)(CO)NCc1ccc(Br)cc1	6
Cc1ccc(S(=O)(=O)N2CCCCC2)cc1NC(=O)CSc1nccn1C	13
CC1(C)Cc2c(sc(NC(=O)C(=O)N3CCCCC3)c2C(=O)O)CO1	15
O=C(CS(=O)(=O)c1ccc(F)cc1)N1CCOCC1	5
COc1ccc(C2=Nn3c(nnc3-c3ccncc3)SC2)cc1OC	12
COc1cc(C)c2occ(/C(C)=N\O)c2c1	6
Cc1ccc(NS(=O)(=O)c2cc(C(=O)NCCSC3CCCCC3)ccc2C)cc1	15
CCNc1nc(NCC)nc(C(=O)NN)n1	-11
COc1ccc(C(=O)N=C2SC3CS(=O)(=O)CC3N2Cc2ccc(F)cc2)cc1 (configuration not stated)	2
CCCCOc1ccc(-c2cnc3ccccc3n2)cc1	0
COc1ccc(/C=N/NC(=O)C(C)n2cnc3ccccc3c2=O)cc1OC (configuration not stated)	29
O=C(NN1C(=O)c2ccccc2NC1c1ccoc1)c1ccccc1 (configuration not stated)	17
NS(=O)(=O)c1ccc(CCNCc2ccccc2OCc2ccc(F)cc2)cc1	4
C/C(=N/NC(=O)CNC(=O)c1cccnc1)c1cccc([N+](=O)[O-])c1	19
CN(CC(=O)Nc1ccccc1Cl)C(=O)COC(=O)c1ccc(Cl)cc1[N+](=O)[O-]	40
COc1ccc(NC(=O)c2ccc(S(=O)(=O)N(C)c3ccccc3)cc2)cn1	18
Cc1noc(C(=O)N(C)c2ccccc2)c1Cl	-9
CCOc1ccc(C2CC(c3ccc(OC)cc3)n3ncnc3N2)cc1 (configuration not stated)	12
COc1cccc(/C=C/C(=C2/C(=O)N(c3ccccc3)N=C2C)c2ccccc2)c1OC	8
CCOc1ccc(NC(=O)CN2CCN(S(=O)(=O)c3ccc(Cl)cc3)CC2)cc1	4
COc1ccc(C(=O)Nc2cc3c(oc2=O)CCCC3=O)cc1	26
CCOc1ccc(C(=S)N2CCOCC2)cc1OC	10
O=C(CSc1nc2ccc(Cl)cc2[nH]1)c1ccc2c(c1)OCO2	14
O=C(COC(=O)c1ccccc1C(=O)N1CCN(c2ccccc2)CC1)Nc1ccccc1	35
Cc1ccc(C)c(N2CCN(C(=O)CCC(=O)Nc3nnc(CC(C)C)s3)CC2)c1	9
O=C(NCCOc1ccccc1)C1CCCCC1	4
O=C(CN1C(=O)CSCC1=O)Nc1ccc2c(c1)OCO2	0
CC(C)NS(=O)(=O)c1ccc(OCC(=O)NCc2cccnc2)cc1	7
CN(C)c1cc(NC(=O)CNC(C)(C)CC(C)(C)C)c2ccccc2n1	41
COc1ccc(C2CC(=O)c3cnc(NC(=O)c4ccccc4OC)nc3C2)c(OC)c1 (configuration not stated)	8
COc1ccc(-n2c(=O)c3ccccc3n(Cc3cccc(C)c3)c2=O)cc1OC	12
C/C(CC(=O)Nc1cccc(Cl)c1Cl)=N\NC(=O)C(=O)N1CCCC1	20
O=C(COC(=O)CCc1ccc(S(=O)(=O)N2CCOCC2)cc1)Nc1cccc(Cl)c1	8
CC(C)(C)c1ccc(OCCC(=O)Nc2cccc(S(=O)(=O)N3CCCCC3)c2)cc1	-7
CC(=O)NCC(=O)OCc1ccc([N+](=O)[O-])cc1	9
C=CCNC(=O)c1ccccc1NC(=O)Cc1ccccc1[N+](=O)[O-]	11
NC(=O)c1ccc(NC(=O)Cc2cccs2)cc1	5
NS(=O)(=O)c1cccc(C(=O)NC2CCSc3ccccc32)c1 (configuration not stated)	8
O=C(NCc1ccc2c(c1)OCO2)C1CCCN(C(=O)c2ccc(Cl)cc2)C1 (configuration not stated)	3
CCOC(=O)c1cnn(-c2ncnc3c2oc2ccccc23)c1N	43
c1ccc(Oc2cccc(OCCCn3cncn3)c2)cc1	24
CN(C)c1nc(-c2cn(CCC#N)c3ccccc23)cs1	4
COc1ccc(-c2noc(CN3C(=O)c4ccccc4C3=O)n2)cc1	9
CCC1S/C(=C(\C#N)C(=O)NCc2ccco2)N(c2ccc(F)cc2)C1=O (configuration not stated)	16
N#Cc1nc(Cc2ccccc2)oc1N1CCC(C(N)=O)CC1	20
O=C(O)c1ccc(S(=O)(=O)N2CCOCC2)o1	12
Cc1ccc(C2c3c(oc4ccc(Cl)cc4c3=O)C(=O)N2CCCN2CCOCC2)o1 (configuration not stated)	16

(list continues)
SMILES	OX1R FRET antag
CCCCn1nc(C(=O)Nc2cc(S(=O)(=O)N(C)C)ccc2C)c2ccccc2c1=O	-7
O=S(=O)(c1ccc(F)cc1)N1CCN(C(=S)NCCc2ccccc2)CC1	6
CC(NC(=O)CCNC(=O)c1ccc(Br)cc1)c1ccc(S(N)(=O)=O)cc1 (configuration not stated)	-4
CN1CCN(S(=O)(=O)c2ccc(Cc3ccc(S(=O)(=O)N4CCN(C)CC4)cc3)cc2)CC1	26
COc1ccc(Nc2nc(NCCO)nc(OC)n2)cc1	7
CS(=O)(=O)N(CC(N)=O)Cc1ccc(Cl)cc1	10
